High-throughput results: PubChem, National Center for Advancing Translational Sciences (NCATS)
2A StopGo: FMDV 2A StopGo reporter, luciferase signal; Potency, µM (doses to about 57.9 µM), for the others: at the top dose signal change, negative = less light; hit rate 1.2% among 410,000; human cells with a luciferase reporter of 2A StopGo recoding; control for the full effect not named in the record; active = well fitted falling curve with a large enough effect; inconclusive = small, poorly fitted or top-dose-only effect; inactive = no such curve, though single readings can be large or run the other way; tested in HEK293T cells; also: % is scaled to controls: 0 for no effect and ±100 for the full control effect; nearly all actives have a fitted effect of over 45% in size; luciferase light after 4 h
RE007 growth inh: less growth of the S. pombe RE007 Vpr strain. AID 651644. Potency, µM (doses to about 92.2 µM), inactives show at the highest dose activity change, negative = less growth. hit rate 0.21% among 360,000. S. pombe RE007 Vpr strain, BacTiter-Glo ATP luminescence, 24 h; control for the full effect not named in the record; active = well fitted falling curve with a large enough effect; inconclusive = small, poorly fitted or top-dose-only effect; inactive = no such curve, though single readings can be large or run the other way;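 also: % is scaled to controls: 0 for no effect and ±100 for the full control effect; nearly all actives have a fitted effect of over 50% in size; the assay follows cell death caused by Vpr and the record does not say whether a fall means rescue or toxicity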
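Fission yeast RE007 carrying one integrated HIV-1 vpr copy, seeded at OD 0.01 in PMG+AL medium with 23 nL pinned compound. Grown 24 h at 30 degrees; viability read by BacTiter-Glo luminescence after 5 min.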
Cruzain noTriton: blocks cruzain activity in detergent-free assay | AID 1476 | hit rate 2.3% among 200,000 | Potency, µM, for the others: max response, negative = inhibition, hits mostly inhibitors | purified cruzain, Z-FR-AMC fluorescence, no detergent;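 also: plate controls were enzyme without inhibitor for no effect and buffer without enzyme for full effect; nearly all actives have a fitted effect of over 40% in size; top concentration of the series not given in the record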
Target sequence (P25779 123-467 limits assumed): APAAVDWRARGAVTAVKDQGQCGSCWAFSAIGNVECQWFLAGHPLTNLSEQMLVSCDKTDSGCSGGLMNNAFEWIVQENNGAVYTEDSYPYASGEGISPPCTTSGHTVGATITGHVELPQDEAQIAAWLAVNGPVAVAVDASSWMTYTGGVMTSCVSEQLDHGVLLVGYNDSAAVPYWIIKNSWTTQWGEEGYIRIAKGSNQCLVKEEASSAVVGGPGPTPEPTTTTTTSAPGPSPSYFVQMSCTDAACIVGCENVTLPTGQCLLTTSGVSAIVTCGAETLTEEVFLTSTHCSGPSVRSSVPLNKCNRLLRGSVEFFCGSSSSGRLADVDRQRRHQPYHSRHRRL
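Purified cruzain at 1.5 nM, pre-incubated 15 min with compound at room temperature in 100 mM sodium acetate pH 5.5, 5 mM DTT, 0.00005% Triton X-100. Reaction started with 2 uM Z-FR-AMC; AMC fluorescence increase over 60 s gives rate.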
Cruzain inh Det: blocks cruzain activity in presence of Triton detergent | P25779 | purified cruzain, Z-FR-AMC fluorescence, 0.01% Triton | Potency, µM, for the others: max response, negative = inhibition, usual class: inhibitors | hit rate 0.43% among 200,000;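 also: plate controls were neutral wells for no effect and buffer without enzyme for full effect; nearly all actives have a fitted effect of over 40% in size; top concentration of the series not given in the record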
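Steps: dispense cruzain (1.5 nM final) in acetate buffer pH 5.5 with DTT and 0.01% Triton X-100; pin-transfer compounds; incubate 15 min RT; add Z-FR-AMC (2 uM final); read fluorescence every 30 s, using the 60 s intensity change.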
LASV entry inh: inhibitors of Lassa virus binding or cell entry; Lassa virus pseudotype entry inhibition, cell reporter; control for the full effect not named in the record; Potency, µM (top dose mostly 37.9 µM), for inactives: at the top dose activity change, negative = inhibition, hits mostly inhibitors; hit rate 1.2% among 300,000; active means well fitted inhibition curve with a large enough effect; inconclusive means small, poorly fitted or top-dose-only effect, or effect the other way; inactive means flat fitted curve, though single readings scatter; tested in HEK293 cells; also: % is scaled to controls: 0 for no effect and ±100 for the full control effect; nearly all actives have a fitted effect of over 50% in size; luciferase read-out
SARS PLpro yeast: blocks SARS-CoV papain-like protease in a yeast assay | S. cerevisiae expressing SARS-CoV PLpro, growth rescue; control for the full effect not named in the record | Potency, µM (titrated, usually from 32.9 µM), without a hit: at the top dose activity, positive = growth rescue | hit rate 0.19% among 330,000 | AID 485353; active means well fitted rising curve with a large enough effect; inconclusive means small, poorly fitted or top-dose-only effect; inactive means no such curve, though single readings can be large or run the other way; also: 0% is about no effect; nearly all actives have a fitted effect of over 55% in size; growth read by luminescence after 48 h
NS1 function inh: blocks influenza NS1 protein function; S. cerevisiae slowed by influenza A NS1, growth recovery by OD600; Potency, µM (series often up to 46.1 µM), for inactives: at the highest dose activity, positive = more growth; hit rate 0.4% among 270,000; AID 2326; active means well fitted rising curve with a large enough effect; inconclusive means small, poorly fitted or top-dose-only effect; inactive means no such curve, though single readings can be large or run the other way; also: nearly all actives have a fitted effect of over 50% in size
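A cell-based growth assay was used: compounds that relieve NS1-induced slow growth of budding yeast raise OD600. Assay medium was yeast nitrogen base with ammonium sulphate and -URA supplement, pH 6.0, with 2% galactose.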
Marburg entry inh: Marburg virus entry inhibition; Marburg virus pseudotyped entry inhibition, cell reporter; control for the full effect not named in the record; about a third of the inactives were read at about 46 µM; Potency, µM (top dose mostly 37.8 µM), without a hit: top-dose activity change, negative = inhibition, hits mostly inhibitors; hit rate 1.8% among 300,000; AID 540276; active = well fitted inhibition curve with a large enough effect; inconclusive = small, poorly fitted or top-dose-only effect, or effect the other way; inactive = flat fitted curve, though single readings scatter; tested in HEK293 cells; about a fifth of its hits are not listed in these tables; also: % is scaled to controls: 0 for no effect and ±100 for the full control effect; luciferase read-out
Active calls of the source: *; ? = inconclusive; . = not tested or not shown; & = joins results of further samples; [ ] = another dose, or the depositor's remark. Unless noted, calls follow the shape of the dose curve; as a rule, active = well fitted curve in the direction sought with a large enough effect; inconclusive = small, poorly fitted or top-dose-only effect, or another doubt; inactive = no such curve, though single readings can be large; an effect the other way counts as inactive or inconclusive. Potency is read from the fitted curve at half-maximal effect. Rows were taken by chance (roughly 4.5% active in at least one column).

SMILES | 2A StopGo | RE007 growth inh | Cruzain noTriton | Cruzain inh Det | LASV entry inh | SARS PLpro yeast | NS1 function inh | Marburg entry inh
CCCCN(C(=O)c1cc(OC)c(OC)c(OC)c1)C1=CC2CCC(C1)N2C (configuration not stated) | 0% | 11% | -4% | 3.0% | 17% | -4% | 7% | -1%
COC(=O)/C(C#N)=C/c1c(N2CCN(c3ccccc3)CC2)nc2c(C)cccn2c1=O | 0% | 1% | . | . | . | -1% | 0% | .
Cc1ccc(-c2cnc3ccccc3n2)cc1C | -39% | -16% | . | . | . | 0% | -38% | .
O=c1[nH]c(CN2CCN(S(=O)(=O)c3ccc(Cl)cc3)CC2)nc2cc(Cl)ccc12 | -19% | 5% | -14% | -6.8% | 14% | 4% | 5% | 2%
COC(=O)N/N=C1\CCCc2ccccc21 | -3% | 2% | -7% | -27% | 6% | 7% | 14% | -1%
Cn1c(C(=O)OCC(=O)NCc2ccco2)cc2sccc21 | . | 8% | -21% | -6.1% | ? | 3% | 1% | -5%
O=C(CCC(=O)c1ccc(F)cc1)NC1CCCN(Cc2ccccc2F)C1 (configuration not stated) | -13% | 5% | . | . | . | 0% | 11% | .
Cc1cc(C)n2[nH]c(=O)c(N=Nc3ccc(S(N)(=O)=O)cc3)c2n1 | -17% | 10% | . | . | -23% | 4% | 7% | ?
Cc1ccc2ccc(C(Nc3ccccn3)c3ccccc3)c(O)c2n1 (configuration not stated) | -3%&-21% | -4% | 20%&-8% | -3.4%&-3.9% | ? | 11µM* | -50% | -13%[46.1 µM]
CCOC(=O)C1(Cc2ccccc2C#N)CCCCC1=O (configuration not stated) | -22% | -4% | . | . | 10%[46.1 µM] | . | . | -18%[46.1 µM]
COc1ccccc1-c1ccc(SCc2cccc(F)c2)nn1 | 18% | -29% | . | . | -1% | -3% | -45% | -12%
O=C(COc1ccccc1)Nc1ccccc1C(=O)OCc1cc(=O)n2nc(C3CC3)sc2n1 | -3% | . | -3% | -0.1% | 10%[46.1 µM] | . | . | .
CCCCn1c(SCC(=O)N2CCCc3ccccc32)nc2c1c(=O)n(C)c(=O)n2C | 11% | -10% | -1% | -9.0% | -26% | 1% | -9% | 0%&-25%
Cc1cc(C)n(CCNC(=O)c2cc(COc3ccc4ncccc4c3)on2)n1 | 13µM* | -13% | . | . | . | -4% | 2% | .
Cc1ccc(Nc2cc(C(=O)NCCCN3CCOCC3)c3ccccc3n2)cc1C | -4% | 5% | . | . | . | 2% | -7% | .
COc1ccccc1N1CCN(C(=O)CSc2nc3ccccc3nc2N2CCCCC2)CC1 | -7% | -12% | . | . | . | -1% | ? | .
CCCCn1c(N)c(N(CCC(C)C)C(=O)CSc2nnc(Nc3ccccc3)s2)c(=O)[nH]c1=O | 44%[activator] | -10% | . | . | -25% | -4% | . | -11%
Cc1ccc(C(c2sc3nc(-c4ccco4)nn3c2O)N2CCN(Cc3ccccc3)CC2)cc1 (configuration not stated) | -2% | . | 10% | 3.2% | -9%[46.1 µM] | . | . | .
CC1=C(C(=O)OCC2CCCCC2)C(c2ccccc2F)NC(=O)N1 (configuration not stated) | ? | 2% | . | . | -16% | . | . | 19%[14.2 µM]
CC(=O)Nc1ccc(N/C=C(\C=O)c2nc3ccccc3o2)cc1 | -4% | 26% | . | . | -12% | 0% | -2% | -4%[46.1 µM]
Cn1cnnc1SCC(=O)c1c(N)n(Cc2ccccc2)c(=O)n(C)c1=O | 4% | 2% | . | . | 0% | 0% | . | -10%[46.1 µM]
COc1ccc(NC(=O)CCS(=O)(=O)c2cc3c(cc2C)NC(=O)CO3)cc1Cl | -25% | . | 4% | 2.7% | ? | . | . | .
Cc1ccc(-c2nc(NCc3ccco3)n(C(=O)c3ccco3)n2)cc1 | 49%[activator] | 2% | . | . | 12% | 0% | . | ?
CC(C)(C)NC(=O)C(=O)NCc1ccccn1 | 16% | 19% | . | . | 10% | -6% | . | 18%[46.1 µM]
C=CCSc1nc(=O)n2ccccc2n1 | 5% | 4% | . | . | 16% | 1% | . | 18%[46.1 µM]
CCn1c(SCC(=O)N2CCC(C)CC2)nc2c1c(=O)n(C)c(=O)n2C | -22% | 7% | . | . | -1% | -1% | -5% | 4%[46.1 µM]
CCCOC(=O)c1ccc(NC(=O)C2CC(=O)N(c3ccc(C)cc3)C2)cc1 (configuration not stated) | -22% | . | -3% | -1.5% | 29%[46.1 µM] | . | . | .
CC(C)OC(=O)Nc1ccc2c(c1)N(C(=O)CCN1CCN(CCO)CC1)c1ccccc1CC2 | 13% | 3% | . | . | . | 0% | 0% | ?
COc1ccccc1CNC(=O)COC(=O)c1cnccn1 | -20% | -4% | -7% | 1.9% | 19% | -3% | -1% | 4%
CCCCn1c(N)c(N(CCOC)C(=O)c2cnccn2)c(=O)[nH]c1=O | -9% | 19% | . | . | -11% | . | . | 10%
Cc1cccc(-c2nc3c(C#N)c[nH]n3c2NC2CCCCC2)c1 | 2% | . | 4% | -2.4% | -6%[46.1 µM] | . | . | 8%[46.1 µM]
COC(=O)c1cccc(NC(=O)Nc2ccc(Cl)cc2Cl)c1 | -5% | -15% | . | . | -21% | -1% | 2% | -8%
COc1cccc(CNC(=O)CCCn2c(=S)[nH]c3cc4c(cc3c2=O)OCO4)c1 | -6% | -10% | . | . | . | 1% | -3% | .
O=C(Cn1ncc(Cl)c(Cl)c1=O)NCC1CCCCC1 | 28µM* | 19% | -3% | -6.6% | 18µM* | -32% | 19% | ?
CC(=O)c1cccc(N=C2NC(=O)CS2)c1 | -6% | -3% | 6% | 3.3% | 1% | -1% | 4% | 0%
COc1ccc(S(=O)(=O)N(CC(=O)NCCSCc2ccccc2)c2ccc(C)cc2)cc1 | -4% | . | -7% | -7.7% | -13%[46.1 µM] | . | . | -9%[46.1 µM]
CCOC(=O)C1=C(N)OC2=C(C(=O)CC(C)C2)C1c1cccnc1 (configuration not stated) | 7% | -5% | -5% | -2.1% | ? | ? | 5% | 15%
O=c1c2c3c(sc2ncn1Cc1ccc(F)cc1)CCC3 | -10% | 25% | 7.9µM* | -1.5% | 3% | -2% | -5% | -30%[46.1 µM]
O=C(NNC(=O)c1ccccc1O)c1ccc(S(=O)(=O)Nc2ccccc2)cc1 | 33%[activator] | -9% | . | . | ? | 2% | . | ?
O=C(Nc1c(C(=O)O)[nH]c2ccccc12)NC1CCCCC1 | -4% | -24% | -26% | -19% | 0% | 4% | -31% | -7%
Nc1cc(CN2C(=O)c3ccccc3C2=O)cc(Cl)c1O | . | 6% | -9% | -2.1% | 13% | 5% | ? | 3%
COc1ccc(OC)c(C(c2nnnn2CCc2ccccc2)N2CCN(c3ccccc3)CC2)c1 (configuration not stated) | 18% | 6% | 2% | -0.5% | 10µM* | 1% | -1% | ?
CCc1ccc(NC(=O)[C@H](C)NC(=O)C2CCN(C(=O)[C@@H](NC(=O)OC(C)(C)C)C(C)C)CC2)cc1 | 48%[activator] | -1% | . | . | . | 1% | 1% | 5%
Cc1ccc(C(=O)Nn2cnnc2)c(Cl)c1 | -7% | 14% | . | . | . | 3% | -7% | .
Clc1ccc(COc2cccc(CNCc3ccncc3)c2)cc1 | ? | -13% | . | . | ? | 0% | -3% | 0%[46.1 µM]
CC(Sc1ncccn1)C(=O)N1CCc2ccccc21 (configuration not stated) | 16% | -8% | . | . | 8% | -1% | . | ?
CC(C)(C)c1[nH]nc2c1C(c1ccc(OC(=O)c3ccco3)cc1)C(C#N)=C(N)O2 (configuration not stated) | . | 0% | -24% | -4.0% | 0% | 12% | -41% | 3%
CCOc1ccccc1-c1nc(SCC(=O)c2ccc(OC)c(Br)c2)n[nH]1 | -23% | . | -3% | -4.4% | 30%[46.1 µM] | . | . | 11%[46.1 µM]
CCOc1ccccc1NC(=O)c1cccc(NC(=O)c2ccco2)c1 | ? | -7% | -10% | -1.5% | ? | -25% | -79% | ?
CCOc1cc(C=O)cc(Br)c1OCC(=O)NCCc1ccccc1 | -14% | 12% | . | . | 1% | -1% | -36% | -11%
Cc1ccc(-c2cn3c(n2)sc2cc(C(=O)NC4CCCCCC4)ccc23)c(C)c1 | 8% | . | 10µM* | -1.2% | 1%[46.1 µM] | . | . | .
Clc1cccc(-n2ncc3c(NCCCc4ccccc4)ncnc32)c1 | 7% | . | -18% | -0.1% | ? | . | . | .
Cc1cc(C)c(C)c(OCCCCN(C)Cc2ccccc2)c1 | -17% | -15% | . | . | . | -7% | -24% | .
Cc1ccc2c(c1)c1c(n2C)-c2[nH]ncc2CC1 | 33%[activator] | 20µM* | 15% | -17% | ? | -69% | -5% | 27%
CCc1cccc2c(SC(C)C(=O)NCC3CCCO3)nc(-c3ccccc3)nc12 (configuration not stated) | . | 4% | -4% | -3.4% | -19% | 3% | -1% | -19%
COc1ccc(NC(=O)c2ccc3c(c2)C(=O)N(CC2CCCO2)C3=O)cc1O (configuration not stated) | 3% | -21% | . | . | -6% | -6% | 0% | 2%
COCCCN(C(=O)Cn1ncc2c(=O)oc3ccc(C)cc3c21)C(C)c1ccncc1 (configuration not stated) | -5% | 8% | 11% | -0.5% | . | 6% | -18% | .
Cc1n[nH]c(C)c1CCNC(=O)C1CCC(=O)N(CCc2cccc(F)c2)C1 (configuration not stated) | -10% | 8% | . | . | 2% | 1% | 2% | -20%
O=C(c1ccc2c(c1)N(Cc1ccccc1F)C(=O)c1ccccc1S2(=O)=O)N1CCN(c2ccccn2)CC1 | -5% | . | 8% | 2.7% | -5%[46.1 µM] | . | . | 1%[46.1 µM]
COC(=O)C(NC(=O)CCc1nnc2ccc(N3CCCCC3)nn12)C(C)C (configuration not stated) | 33%[activator] | 9% | . | . | ? | 0% | -9% | ?
CC(C)c1ccc(S(=O)(=O)N2CCN(C(=O)C3CC3C)CC2)cc1 (configuration not stated) | -25% | -10% | . | . | -15%[46.1 µM] | 7% | . | ?
CCNC(=S)NNC(=O)c1csc(C(C)C)c1 | 53%[activator] | 4% | -6% | 5.3% | 4% | -4% | -3% | ?
